Choline anaer gr – inhibitors of anaerobic choline-dependent gram-negative bacterial growth; Gram-negative bacterium anaerobic choline minimal medium, absorbance growth; hits give low values; many inactives read as strong as hits in the columns shown; calls only; 55,000 tested, 0.2% active; AID 1963822;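 active means growth z-score on choline under -2 at 7 or 20 h with little or no fall on glycerol, limits in tiers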;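 further: stock transfer was 300 nL into about 50 µL; the organism is E. coli; final concentration not given here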
Choline anaer gr early – recorded beside Choline anaer gr, whose call it bears; z-score; measured here: choline growth z-score, timepoint 1;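 score of optical density at 7 h as mean of two plates; lower means less growth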
Active calls of the source: *; i = inactive. These rows are one share of the data, so the mix of outcomes need not match the whole.

Sample of the layout (7 entries):
SMILES	Choline anaer gr	Choline anaer gr early
Cc1cccc(-c2cc(N3CCN(C(=O)Cc4ccccc4C)CC3)ncn2)c1	i	0.5
CNC(=O)c1ccc(-c2nc3cc(NS(=O)(=O)c4ccc5c(c4)CCCC5)ccc3n2C)cc1	i	0.84
COc1cccc(NC(=O)Cn2c3ccccc3n3c(=O)cc(-c4ccccc4)nc23)c1	i	0.28
O=C(c1ccc(Cl)s1)N1C[C@@H]2C[C@H](NS(=O)(=O)c3cccs3)[C@H]1C2	i	0.04
CCC12CN3CC(CC)(CN(C1)C3c1ccc3c(c1)OCO3)C2O (stereo unspecified)	i	-0.82
Cn1c(SCC(=O)NCc2ccc(F)cc2)nc2c(-c3ccccc3)csc2c1=O	i	1.03
CCC(=O)N1CCN(c2nc(C)cc(N3CCOCC3)n2)CC1	i	-0.07

The whole of this part, previewed entries included:
SMILES	Choline anaer gr	Choline anaer gr early
Cc1cccc(-c2cc(N3CCN(C(=O)Cc4ccccc4C)CC3)ncn2)c1	i	0.5
CNC(=O)c1ccc(-c2nc3cc(NS(=O)(=O)c4ccc5c(c4)CCCC5)ccc3n2C)cc1	i	0.84
COc1cccc(NC(=O)Cn2c3ccccc3n3c(=O)cc(-c4ccccc4)nc23)c1	i	0.28
O=C(c1ccc(Cl)s1)N1C[C@@H]2C[C@H](NS(=O)(=O)c3cccs3)[C@H]1C2	i	0.04
CCC12CN3CC(CC)(CN(C1)C3c1ccc3c(c1)OCO3)C2O (stereo unspecified)	i	-0.82
Cn1c(SCC(=O)NCc2ccc(F)cc2)nc2c(-c3ccccc3)csc2c1=O	i	1.03
CCC(=O)N1CCN(c2nc(C)cc(N3CCOCC3)n2)CC1	i	-0.07
Cc1c(-c2cccc(NC(=O)C3c4ccccc4Oc4ccccc43)c2)nc2ncccn12	i	0.66
O=S(=O)(c1c[nH]c(-c2nnc(-c3ccc(F)cc3)o2)c1)N1CCOCC1	i	0.71
O=C(c1cnc2sc3c(n2c1=O)CCC3)N1CCN(c2ccccn2)CC1	i	0.11
Cc1cc(S(=O)(=O)[C@H]2CS(=O)(=O)C[C@@H]2NC2CC2)ccc1F	i	0.1
CC1CCC(NC(=O)c2nc(-c3ccc(S(=O)(=O)N(C)C)cc3)no2)CC1 (stereo unspecified)	i	1.23
CC1(C(=O)NC2CCCC2)CCC(=O)N1Cc1ccc(Cl)cc1 (stereo unspecified)	i	0.02
Cc1cc(N2CCOCC2)nc(N2CCN(C(=O)CCC3CCCCC3)CC2)n1	i	-0.72
O=C(Nc1ccc(F)cc1)c1ccc(-n2nc(OCc3ccc(Cl)cc3)ccc2=O)cc1	i	1.92
CC(C)c1nn2c(S(=O)(=O)NCc3cccs3)c(C(C)C)nc2s1	i	-2.07
O=C(CN1C(=O)c2ccccc2C1=O)Nc1cccc(OCc2cc(=O)n3ccccc3n2)c1	i	2.14
O=C(c1cccc(N2C(=O)CCS2(=O)=O)c1)N1CCc2ccccc21	i	-0.66
Cc1ccc(-c2noc(C3CC3)n2)cc1S(=O)(=O)NC(C)C(=O)NC(C)C (stereo unspecified)	i	-0.1
CCC(C)NC(=O)CN(C)S(=O)(=O)c1ccc2c(c1)C(C)(C)C(=O)N2C (stereo unspecified)	i	0.91
COc1cc(OC)c(NS(=O)(=O)c2cc(-c3cc(C(F)(F)F)on3)cs2)cc1Cl	i	2.09
O=c1c2cccnc2n(-c2ccccc2)c(=O)n1Cc1ccccc1Cl	i	0.82
O=C(Cn1ccn2nc(-c3ccc(Cl)cc3)cc2c1=O)NC1CCCCC1	i	-1.37
COc1ccc(-c2nc(Nc3nc(C)cc(C)n3)sc2CCC(=O)O)cc1	i	0.2
Cn1nnc2c(Nc3ccc(F)cc3)ncnc21	i	-1.11
COc1ccc(C2=NN(C(=O)CSC3=NN4CCCC(=O)N=C4S3)C(c3ccc(OC)cc3)C2)cc1 (stereo unspecified)	i	-0.49
CN(Cc1ccoc1)C(=O)NC1CCCC1	i	0.26
O=S(=O)(NCc1cccs1)c1cc(-c2noc(C3CCCC3)n2)cs1	i	1.3
COc1ccc2[nH]c3c(c2c1)CCN(C(=O)c1cc(CC(C)C)on1)C3c1ccc(F)cc1 (stereo unspecified)	i	-0.3
CCCN1C(SCC(=O)NCc2ccccc2)=NS(=O)(=O)c2ccccc21	i	1.03
Cc1nn2c(=O)cc(CSc3nc(-c4ccccc4)nc4cc(=O)[nH]n34)nc2s1	i	0.1
CC(CN1CCC(n2c(=O)[nH]c3cc(Cl)ccc32)CC1)NC(=O)c1ccc2ccccc2c1 (stereo unspecified)	i	0.91
COc1ccc(-c2cc(=O)[nH]c(SCc3nc(-c4ccc(OC)cc4OC)oc3C)n2)cc1	i	-2.01
CCc1cccc(-n2nnnc2N2CCN(C(=O)Nc3cccc(C)c3C)CC2)c1	i	-0.45
Cc1nc(-c2ccc(N3CCN(C(=O)C(NS(=O)(=O)c4ccccc4)C(C)C)CC3)cc2)no1 (stereo unspecified)	i	-0.54
Cc1nc(-c2ccc(C)c(S(=O)(=O)NCC(=O)NCc3ccccc3Cl)c2)no1	i	-0.33
CS(=O)(=O)Nc1ccc(C(=O)N2CCCC(C(=O)NC3CCCC3)C2)cc1 (stereo unspecified)	i	0.56
CN(C)c1ccc(-c2nc3sc4c(c3c(=O)[nH]2)CCCC4)cc1	i	0.39
O=C(Nc1ccc(F)cc1F)C1CCN(C(=O)c2cccn2-c2cccnc2)CC1	i	-0.47
CN1C2CC(OC(=O)C(CO)c3ccccc3)CC1C1OC12 (stereo unspecified)	i	0.4

Arranged by SMILES length (falling): some entries from above
SMILES	Choline anaer gr	Choline anaer gr early
Cc1nn2c(=O)cc(CSc3nc(-c4ccccc4)nc4cc(=O)[nH]n34)nc2s1	i	0.1
O=C(Nc1ccc(F)cc1F)C1CCN(C(=O)c2cccn2-c2cccnc2)CC1	i	-0.47
COc1ccc(-c2nc(Nc3nc(C)cc(C)n3)sc2CCC(=O)O)cc1	i	0.2
CN(Cc1ccoc1)C(=O)NC1CCCC1	i	0.26

Later entries.
SMILES	Choline anaer gr	Choline anaer gr early
O=C1CC(c2ccccc2Br)c2scc(-c3ccccc3)c2N1 (stereo unspecified)	i	1.19
Cc1noc(C)c1S(=O)(=O)N1CCC(C(C)C(=O)NCCc2c[nH]c3ccccc23)CC1 (stereo unspecified)	i	-0.13
Cc1ccccc1Cn1c(C)c(CNCCc2ccc(S(N)(=O)=O)cc2)c(C(=O)O)c1C	i	0.79
CC(C)NC(=O)CSc1nc(-c2ccc3c(c2)OCO3)nc2cc(=O)[nH]n12	i	-1.08
CC(C)(C)NC(=O)CN1C(=O)C2CCCCN2c2ccc(S(=O)(=O)N3CCCCC3)cc21 (stereo unspecified)	i	-1.83
COc1cccc(C=NC=Nc2cccc(OC)c2)c1	i	-0.79
O=C1[C@@H]2Cc3ccccc3CN2C(=O)N1c1ccc2c(c1)OCCO2	i	1.18
COc1ccc(C2CCCN2C(=O)c2cnn3cc(Br)cnc23)cc1 (stereo unspecified)	i	-0.22
O=c1c2n[nH]c(=S)n2ccn1-c1ccc(F)c(F)c1	i	-0.09
Cc1nc2cccnc2n1-c1cc(C(=O)NCCC2=CCCCC2)ccc1Cl	i	0.44
CC1(C(=O)NC2CCCCC2)Cn2c(cc3ccccc32)C(=O)N1CCCN1CCOCC1 (stereo unspecified)	i	0.67
Cn1c(=O)c2ccc(C(=O)NC3CCCC3)cc2n2c(=O)n(CC(=O)c3ccccc3)nc12	i	0.13
Cc1cc(C)n(-c2nc3c(c(=O)n2CC(=O)N2CCOCC2)CCCC3)n1	i	0.13
CC(Nc1nc(-c2nnc(-c3ccccc3)o2)nc2ccccc12)c1ccccc1 (stereo unspecified)	i	1.85
Cc1nc(-c2ccccc2)sc1-c1ccc(SCC(=O)NC2CCCC2)nn1	i	-1.73
CC(=O)N1CCC(C(=O)NCc2ccccc2)(N(CCC2=CCCCC2)C(=O)c2ccc(C)cc2)CC1	i	-0.24
Cc1[nH]c(=O)[nH]c(=O)c1S(=O)(=O)NC1CC1	i	0.41
Cc1cccc(N2CCN(S(=O)(=O)c3ccc(Cl)cc3)CC2)c1C	i	1.11
Cc1cc(N2C(=O)CCS2(=O)=O)cc(C)c1S(=O)(=O)N(C)C1CCS(=O)(=O)C1 (stereo unspecified)	i	-0.43
COc1ccc(CN2CCCN(Cc3ccccc3Cl)S2(=O)=O)cc1	i	-0.92
CCOC(=O)c1c(C)[nH]c(C)c1S(=O)(=O)N1CCC(C(=O)N2CCN(c3cccc(Cl)c3)CC2)CC1	i	-0.3
COC(=O)CNC(=O)Nc1nc2c(s1)CCCCCC2	i	-0.38
COc1cccc(NC(=O)CC(=O)Nc2ccc3nc4n(c(=O)c3c2)CCCCC4)c1	i	1.22
CCCCCN1C(C(=O)c2ccccc2)=C(NC(=O)COc2ccccc2)c2ccccc2S1(=O)=O	i	0.15
COc1ccc(C2CC(=O)C3=C(C2)Nc2onc(C)c2C3c2ccc(C)cc2)cc1OC (stereo unspecified)	i	0.31
O=C(CCSCc1cnn(-c2ccccc2)c1-n1cccc1)NCC1CCN(CCc2ccc(F)cc2)CC1	i	0.15
CCc1nnc(-c2ccc(S(=O)(=O)N3CCN(C4CCCCC4)CC3)o2)o1	i	0.06
Cc1cccc(N2CCN(C(=O)CCS(=O)(=O)c3ccc4c(c3)CC(=O)N4C)CC2C)c1 (stereo unspecified)	i	1.06
Cc1noc2nc(CCC(=O)NC(C)C)nc(N3CCCCC3)c12	i	-0.56
COc1ccc(N2CCN(S(=O)(=O)c3cc(-c4cc(C(F)(F)F)on4)sc3C)CC2)cc1	i	0.71
CN(C(=O)c1cc(-c2cccs2)n(C2CCS(=O)(=O)C2)n1)C1CCS(=O)(=O)C1 (stereo unspecified)	i	0.31
Cc1cccc(C(=O)Nc2ccc(-c3nc(C)no3)cc2)c1	i	0.37
CCn1c(CN(c2ccc(C)cc2)S(C)(=O)=O)nnc1SCC(=O)Nc1ccc(C)cc1	i	-0.7
C=CCOc1ccc(C2CC(=O)Nc3c2c(C)nn3-c2ccc3nnc(C)n3n2)cc1 (stereo unspecified)	i	-0.32
Cc1ccc(-c2nc(CS(=O)CC(=O)N3CCN(c4ccccc4)CC3)c(C)o2)cc1 (stereo unspecified)	i	0.62
CCCCn1c(=O)c2sccc2n2c(=O)n(CC(N)=O)nc12	i	1.24
CCCN1CCN(Cc2nc3nc(C)cc(N4CCN(CC)CC4)n3n2)CC1	i	1.52
CCC(C)Nc1nc(N(C)C)nc(-n2cnc(SC)n2)n1 (stereo unspecified)	i	0.66
Cc1ccc(S(=O)(=O)NCc2nc(N)n(S(=O)(=O)c3ccc(C)c(C)c3)n2)cc1C	i	-0.2
CCCCC(=O)Nc1ccc(N2CCn3c(nc4cc(Cl)ccc43)C2)cc1	i	0.04
Cc1nn(-c2ccc3nnc(C)n3n2)c2c1C(c1cccc(OCc3ccc(Cl)cc3)c1)CC(=O)N2 (stereo unspecified)	i	-0.94
C#CCOc1ccc(C2CC(=O)Nc3c2c(C)nn3-c2nc3ccc(OC)cc3s2)cc1 (stereo unspecified)	i	1.19
CCn1c(=O)c(=O)n(CC)c2cc(NS(=O)(=O)c3ccc(Cl)cc3)ccc21	i	0.55
CC1CCC(C(=O)N(c2cc(C#CC(C)(C)C)sc2C(=O)O)C2CCC(O)CC2)CC1 (stereo unspecified)	i	0.58
CCCCOC(=O)c1ccc(NC(=O)C2CC(=O)Nc3nc4ccccc4n32)cc1 (stereo unspecified)	i	-1.97
Cc1cccc(Cn2cccc2CNS(=O)(=O)c2cccc3nsnc23)c1	i	1.12
Cc1ccc(NC(=O)NCCCn2c(-c3ccncc3)nc3cccnc32)c(C)c1	i	3.04
CCOC(=O)C1CCN(c2cc3c(cc2NC(=O)NCC(C)C)n(C)c(=O)n3C)CC1	i	-0.34
CCSc1nnc(-c2nn(C)c3c2CN(S(=O)(=O)c2ccc(Cl)cc2)CC3)n1CC	i	-0.91
CCn1c(=O)c(-c2noc(CCC(=O)Nc3ccc(F)c(Cl)c3)n2)nn(-c2ccccc2)c1=O	i	-2.07
O=C1Nc2ccccc2Oc2cc(Cl)c(S(=O)(=O)N3CCOCC3)cc21	i	-0.68
Cc1ccc(Cn2c(=O)c3cccnc3n(-c3ccccc3)c2=O)cc1	i	0.57
CCOc1cc(CNCCSc2nnnn2C)cc(Cl)c1OCc1ccc(Cl)cc1	i	0.86
Cc1ccc(S(=O)(=O)N(Cc2nc3nc(C)cc(=O)n3[nH]2)c2ccccc2)cc1	i	-1.26
Cc1ccc(-n2ccc(=O)c(-c3nc(-c4ccccc4C)no3)n2)cc1	i	1.28
Cc1nc2nc(-c3cccnc3)nn2c(C)c1CC(=O)N1CCC(C)CC1	i	-2.2
CCNC(=O)c1sc(N2CCC(C)CC2)nc1N	i	-0.51
Cn1cc(S(=O)(=O)N2CCc3ccccc32)cc1C(=O)N1CCn2c1nc1ccccc12	i	0.42
O=c1n(Cc2cc(F)cc(F)c2)nc2c(S(=O)(=O)N3CCc4ccccc4C3)cccn12	i	0.05
CC(=O)N1CCCSc2ccc(S(=O)(=O)N3CC(C)Oc4ccccc43)cc21 (stereo unspecified)	i	0.96

Carrying on:
SMILES	Choline anaer gr	Choline anaer gr early
Cn1c(=O)n(C)c2cc(S(=O)(=O)Nc3ccc(N4CCN(S(C)(=O)=O)CC4)cc3)ccc21	i	1.51
O=C(c1ccc(CN2C(=O)C3CCCN3C(=O)c3ccccc32)cc1)N1CCOCC1 (stereo unspecified)	i	0.29
CCS(=O)(=O)Nc1ccc(C2(C(=O)NCc3ccco3)CCC2)cc1	i	-1.2
O=C(CSc1nc(-c2ccc(F)cc2)[nH]c1-c1ccccc1)NCC1CCCO1 (stereo unspecified)	i	-0.36
COc1ccc(-n2nc(C(=O)Nc3nc4ccc(OC)cc4s3)c(=O)n(C)c2=O)cc1	i	-0.06

Bioassay records deposited in PubChem BioAssay by ICCB-Longwood Screening Facility, Harvard Medical School.
